PrP 5UTR inh – suppresses PrP 5' UTR mRNA reporter expression. AID 488862. cell-based PrP 5' UTR mRNA reporter, plate reader. 340,000 compounds, 0.35% hits. inhibition, % (concentration not given with the values);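 active = every replicate at 50% or more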;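 also: 0 = median of the neutral control wells; tested in H4 reporter cells; numbers are from one replicate; inactives centre near -14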
BJeLR viability – kills HRASV12-expressing BJeLR cells; BJeLR (HRASV12) viability, CellTiter-Glo ATP luminescence, 48 h; reference of the scale not given here; 300,000 compounds, 0.17% hits; inhibition, % (no concentration beside the values);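 active = replicate mean above 50%; inconclusive = above 50% but judged a plate artefact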;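 also: 50 nL library stock added to about 25 µL; numbers are from one replicate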
Bead autofluor – flagged as autofluorescent in microsphere protease counterscreen; 360,000 compounds, 3.1% hits; compound autofluorescence counterscreen, microsphere flow cytometry; stronger effect = higher value; fluorescence intensity (concentration not given with the values); AID 624483;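 active = at least 3 SD above the mean of all compounds, about 16000 in these data; inconclusive = too few beads counted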;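 also: 100 nL of 1 mM stock went into each well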
Mtb hypoxia rep – reduces hypoxia-regulated biosensor signal in M. tuberculosis; M. tuberculosis hypoxia-regulated fluorescent reporter, fluorescence; fluorescence inhibition, % (no concentration beside the values); 300,000 compounds, 0.1% hits; AID 1159583;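 active = 35 to 45% if threefold the growth effect, above 45% if 1.5-fold the growth effect; inactive = the rest, general growth blockers included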;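 also: wells of about 50 µL received 100 nL stock; 0% = vehicle wells and 100% = reference inhibitor wells; whole bacteria with a GFP reporter of the hypoxia response; strong numbers were not always called active; many hits fall short of the cut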
Sa RN4220 lethal – S. aureus RN4220 growth inhibition; 330,000 compounds, 0.33% hits; OD600, 16 h; inhibition, % (concentration not given with the values); AID 1259311;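 active = z-score of -3 or lower and OD600 up to 0.18 on both plates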;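 also: plate controls were untreated cells for no effect and reference antibiotic for full effect; stock transfer was 100 nL into about 80 µL; one replicate is shown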
Sa ugtP lethal – growth inhibition of S. aureus ugtP deletion strain | AID 1259309 | 330,000 compounds, 0.54% hits | S. aureus RN4220 ugtP deletion, OD600 growth, 16 h; some inactives read as strong as hits | growth inhibition, % (test concentration not listed);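 active = z-score under -3 and OD600 up to 0.15 on both plates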;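 also: plate controls were untreated wells for no effect and antibiotic for full effect; wells of about 80 µL received 100 nL stock; the first replicate is given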
Mtb hypoxia rep growth – further read-out of Mtb hypoxia rep, marked with its call; growth inhibition, %; measured here: M. tuberculosis growth (absorbance);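 0% = vehicle and 100% = reference antibiotic; read after six days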
* = called active by the depositor; ? = inconclusive; . = no result given.

SMILES | PrP 5UTR inh | BJeLR viability | Bead autofluor | Mtb hypoxia rep | Mtb hypoxia rep growth | Sa RN4220 lethal | Sa ugtP lethal
O=C(c1cc2nc(-c3ccco3)cc(C(F)(F)F)n2n1)N1CCN(c2ccccn2)CC1 | -15 | 0 | 2725 | -3 | 9 | -2.3 | -4
O=C(CN1CCN(S(=O)(=O)c2ccc(Br)cc2)CC1)N/N=C/c1ccncc1 | -23 | -6 | 4808 | . | . | . | .
CC(Sc1nnc(-c2cccs2)n1-c1ccccc1)C(=O)NCc1ccco1 (stereo not drawn) | -16 | 3 | 2788 | . | . | -1.5 | -7
CC1=C(C(=O)Nc2ccccc2)C(c2cccs2)C(C#N)=C(SCC#N)N1 (stereo not drawn) | -20 | -5 | 4596 | . | . | 4.1 | 2
c1cc(Nc2ncnc3sc4c(c23)CCC4)ccn1 | -24 | 5 | 3211 | -6 | 4 | -1.6 | 5
COc1ccc(NC(=S)N2CCN(S(C)(=O)=O)CC2)cc1 | -2 | 1 | 5152 | 5 | 10 | 0.0 | 2
Cc1cc(S(=O)(=O)NCc2ccc(N3CCN(C)CC3)cc2)c(C)s1 | . | -8 | 5925 | 4 | 13 | 1.4 | 1
CN(C)CCNS(=O)(=O)c1ccc(N2CCc3ccccc32)c([N+](=O)[O-])c1 | -2 | -1 | 5978 | -1 | -3 | 2.9 | 5
O=C1OCCN1C(=O)[C@H]1[C@H](c2ccccc2)C(c2ccccc2)=NN1c1ccccc1 | -18 | . | 3556 | 1 | 7 | -5.2 | 21
O=C(Nc1ccc(OCC(F)(F)C(F)F)c(C(F)(F)F)c1)c1ccc(Cl)cc1 | -1 | 8 | 3173 | . | . | . | .
O=C(NCCOCCOCCNC(=O)c1cccnc1)c1cccnc1 | -18 | -5 | 4387 | . | . | 7.3 | 4
C=CCn1c(SCC(=O)c2c(N)n(C)c(=O)n(C)c2=O)nnc1-c1ccncc1 | 11 | -6 | 4924 | -3 | 5 | -2.6 | 2
Cc1ccc(N2C(=O)C3C4CCC(O4)C3C2=O)c(OC(F)F)c1 (stereo not drawn) | . | . | 4757 | 8 | 0 | 5.7 | 9
O=c1c2ccccc2nnn1CSc1nc2ccccc2c(=O)n1CCCO | 0 | 6 | 3729 | 3 | 6 | 17 | -60
CC(C)c1nnc(NC(=O)C2CCN(S(=O)(=O)c3ccc(-n4cnnn4)cc3)CC2)s1 | -15 | 4 | 4404 | 9 | 0 | 1.6 | 2
FC(F)(F)c1nnc2sc(-c3ccco3)nn12 | -8 | -3 | 22400* | 16 | 8 | 4.2 | -6
O=C(COc1ccccc1[N+](=O)[O-])N/N=C/c1cccs1 | -26 | -4 | 2584 | . | . | . | .
Brc1ccc(-c2csc(N3CCOCC3)n2)cc1 | -62 | -1 | 4511 | 8 | -1 | 0.6 | 3
COc1ccccc1CNC(=O)N[C@@H](Cc1ccccc1)C(=O)O | -10 | 10 | 2395 | 6 | 4 | 6.9 | 8
O=C(C=NO)Nc1cccnc1 | . | . | . | -4 | 0 | -1.7 | -3
CC(C)C(NC(=O)c1ccc(Cl)c([N+](=O)[O-])c1)C(=O)NCc1ccccn1 (stereo not drawn) | -23 | . | 3907 | 10 | 8 | 1.5 | 6
OCCNCCCCOc1ccccc1F | -22 | 10 | 23043* | 8 | 11 | 3.6 | 10
CCN(C(=O)CSc1nc2cc(C(=O)O)ccc2c(=O)n1-c1ccccc1F)C1CCS(=O)(=O)C1 (stereo not drawn) | -5 | . | ? | 7 | 2 | 4.6 | 6
Cc1cc2c(cc1S(=O)(=O)NC1CCCCC1C)OCC(=O)N2 (stereo not drawn) | -20 | 0 | 5847 | 7 | 3 | 3.3 | 6
Cc1ccc(S(=O)(=O)NC(C)C(=O)N2CCOCCOCCOCC2)cc1 (stereo not drawn) | -9 | 3 | 3818 | 5 | 6 | 2.4 | 4
COC(=O)c1ccc(/C=C2/SC(=S)N(CCC(=O)N3CCOCC3)C2=O)cc1 | -3 | -3 | 5456 | 9 | 5 | 0.3 | 9
O=C(CCn1c(=O)sc2ccccc21)Nc1ccon1 | -17 | -1 | 11220 | 1 | 8 | 4.7 | 10
Cc1ccc(S(=O)(=O)N2C(=O)[C@@H]3Cc4ccccc4CN3C2=O)cc1 | -25 | 2 | 3948 | -3 | -2 | 1.1 | 12
O=C(CSc1nnc(Cc2ccccc2)n1-c1ccc(F)cc1)N1CCOCC1 | -3 | 0 | 6444 | 3 | 13 | 6.0 | 3
CC(=O)N1CCN(C(=O)c2ccco2)CC1 | -4 | -6 | 3716 | 6 | 3 | 1.3 | 12
CC1CCN(CC(=O)Nc2ccc(N3CCCCCC3)cc2)CC1 | -3 | 4 | 4265 | 0 | 11 | 1.2 | 8
COc1ccc(C)cc1NC(=O)CSc1ccc(-c2ccccn2)nn1 | -8 | -10 | ? | 0 | -2 | -2.7 | -5
O=C(NCCC1CCCCN1S(=O)(=O)c1ccccc1)C(=O)Nc1ccc(F)cc1 (stereo not drawn) | -23 | -5 | ? | 9 | 2 | -1.7 | 3
CC(C)n1nnc(-c2ccc(OCc3ccccc3F)cc2)n1 | -82 | -3 | 3798 | 3 | -2 | 7.6 | 6
COCC1CCN(C(=O)c2ccc3oc(Cc4ccccc4)nc3c2)C1 (stereo not drawn) | -15 | 2 | 4404 | 3 | -3 | -0.2 | 3
COc1ccccc1NS(=O)(=O)c1cc(NC(=O)Cc2n[nH]c(=O)c3ccccc23)ccc1Cl | -24 | . | 2986 | 0 | 6 | 2.2 | 7
CN(c1ccc(C(=O)NCC2CCCO2)cc1)S(=O)(=O)c1ccccc1 (stereo not drawn) | -10 | 4 | 2390 | 3 | -3 | 22 | 19
CCC(C(=O)OC)n1cnc2scc(-c3ccc(C)c(C)c3)c2c1=O (stereo not drawn) | -5 | 0 | 4036 | 10 | 9 | 2.9 | 8
CC(=O)Nc1cccc(C(=O)O)n1 | 88* | -5 | 2463 | 18 | -5 | -0.4 | 2
CCOCCCNC(=O)c1c[nH]c2ccc(C)cc2c1=O | -9 | 8 | 22538* | -2 | -2 | 5.5 | 1
COc1ccccc1N1CCN(c2nc3c(C)cccn3c(=O)c2C=O)CC1 | 1 | 0 | 20185* | 0 | 4 | 1.1 | -3
COc1ccc(C(=O)O)cc1S(=O)(=O)NCc1ccncc1 | -8 | . | 3084 | 0 | 1 | 1.3 | 4
O=C(CCNC(=O)Cn1ccc2ccccc2c1=O)NCCCN1CCN(c2ccc(F)cc2)CC1 | 1 | 11 | 4599 | 11 | 3 | 4.5 | 7
CCC(c1nnnn1Cc1ccc(OC)cc1)N(CCCO)Cc1cc2cc3c(cc2[nH]c1=O)OCO3 (stereo not drawn) | -26 | 2 | 5740 | 0 | 10 | 3.7 | 0
Fc1ccc(Nc2nc(Oc3ccc4c(c3)OCO4)nc(N3CCOCC3)n2)c(F)c1 | -25 | 1 | 9284 | 7 | 6 | 8.3 | -4
COc1ccc(/C=C/C(=O)OCc2cccc([N+](=O)[O-])c2)cc1 | -19 | 6 | 4333 | -1 | 9 | 1.8 | 6
O=C(CCn1c(=O)oc2ccccc21)Nc1nc2ccccc2s1 | -20 | -5 | 4350 | 3 | 3 | -9.3 | -9
CC(C)OC(=O)COc1ccc(-c2ccccc2)cc1 | -7 | 3 | 3527 | . | . | -1.3 | 25

Complete entries, looked up by structure:
`O=C(CCNC(=O)Cn1ccc2ccccc2c1=O)NCCCN1CCN(c2ccc(F)cc2)CC1` is listed with PrP 5UTR inh = 1; BJeLR viability = 11; Bead autofluor = 4599; Mtb hypoxia rep = 11; Mtb hypoxia rep growth = 3; Sa RN4220 lethal = 4.5; Sa ugtP lethal = 7
`CN(c1ccc(C(=O)NCC2CCCO2)cc1)S(=O)(=O)c1ccccc1` (stereo not drawn) is listed with PrP 5UTR inh = -10; BJeLR viability = 4; Bead autofluor = 2390; Mtb hypoxia rep = 3; Mtb hypoxia rep growth = -3; Sa RN4220 lethal = 22; Sa ugtP lethal = 19

Next structures.
SMILES | PrP 5UTR inh | BJeLR viability | Bead autofluor | Mtb hypoxia rep | Mtb hypoxia rep growth | Sa RN4220 lethal | Sa ugtP lethal
CC1(C)C2CC[C@]1(C)C(=O)N(CCCCN1CCN(c3ccccn3)CC1)C2=O | -19 | 15 | 3590 | 10 | 10 | 0.3 | 6
O=C(NCC1CCCO1)c1cc(S(=O)(=O)N2CCCC2)c(Cl)cc1Cl (stereo not drawn) | -5 | 0 | 4860 | -3 | 8 | 1.5 | 7
O=C(CNC(=O)c1sc2ccccc2c1Cl)NC1CC1 | -18 | -4 | 4186 | 13 | 1 | 4.9 | 3
Cc1nc(C)c(-c2csc(Nc3ccccn3)n2)s1 | -54 | 8 | 3931 | -1 | 5 | 8.7 | -4
CCC1CCCCN1C(=O)COc1ccc(F)cc1 (stereo not drawn) | -45 | . | 3915 | 16 | 17 | 7.7 | 5
COc1cc(-c2[nH]nc3c2C(c2ccoc2)C(C#N)=C(N)O3)cc(OC)c1OC (stereo not drawn) | -2 | . | 2760 | 3 | 0 | -6.0 | 4
CC(C)[C@H](NC(=O)OC(C)(C)C)C(=O)NCC1CCC(C(=O)N[C@@H](Cc2ccccc2)C(=O)O)CC1 (stereo partly drawn) | -23 | 0 | 3961 | 18 | 6 | 3.8 | 6
Cc1ccc(CNC(=O)COC(=O)CN2C(=O)C3CC=CCC3C2=O)cc1 (stereo not drawn) | -10 | . | 3685 | 9 | 4 | 10 | 5
CCOC(=O)c1cc(-c2ccc(C)cc2)n(CCC(=O)NC(C)CC)c1C (stereo not drawn) | -14 | -7 | 3790 | -17 | 1 | -3.0 | -7
NC(=O)C1CC2(CC(c3cccc(NC(=O)COc4ccc(Cl)cc4)c3)=NO2)CN1C(=O)c1ccccc1 (stereo not drawn) | . | . | . | 4 | 11 | -2.3 | 2
CCOC(=O)CNC(=S)NN(C)C | -29 | -7 | 6424 | 4 | 6 | 2.2 | 3
CCC(=O)N1CCc2cc(S(=O)(=O)N(C)c3ccc(Br)cc3)ccc21 | -4 | 20 | 3751 | -9 | 0 | 0.5 | 8
COc1ccc(CCNC(=O)CSc2nc(C)nc3sccc23)cc1OC | -17 | -12 | 4479 | 11 | 8 | 12 | 5
Cc1cccc(CN2CCC(Oc3ccc(C(=O)N4CCCCC4)cc3)CC2)c1 | -11 | -1 | 6654 | 11 | 12 | -1.1 | 3
Cc1ccc(/C=C/C(=O)Nc2ccc(S(N)(=O)=O)cc2)o1 | -9 | 8 | 4947 | 11 | -2 | 2.0 | 7
O=C(Cc1c[nH]c2ccccc12)Nc1nnc(C2CC2)s1 | -19 | 11 | 3320 | 4 | -13 | 13 | -2
COCCCn1nnnc1SCC(=O)Nc1nc2ccccc2s1 | -25 | -10 | 5033 | -7 | -6 | -1.8 | 3
O=C(CSCc1ccc(F)cc1)Nc1ccccc1C(=O)N1CCOCC1 | 6 | -10 | 2403 | 5 | 5 | 3.1 | 2
O=C(NCC(=O)N1CCCC1)c1cccs1 | -47 | -4 | 8205 | 8 | 11 | 3.9 | 3
COc1ccc(/C=N/NC(=O)Cn2c(Cc3ccc(OC)c(OC)c3)nc3ccccc32)cc1 | -4 | -4 | 2415 | . | . | . | .
Cc1cc(C)c2oc(=O)cc(CN3CCN(Cc4ccccc4)CC3)c2c1 | -12 | 14 | 3854 | -13 | 0 | 1.4 | 6

Of the compounds above, 3 have bromine.
SMILES | PrP 5UTR inh | BJeLR viability | Bead autofluor | Mtb hypoxia rep | Mtb hypoxia rep growth | Sa RN4220 lethal | Sa ugtP lethal
O=C(CN1CCN(S(=O)(=O)c2ccc(Br)cc2)CC1)N/N=C/c1ccncc1 | -23 | -6 | 4808 | . | . | . | .
Brc1ccc(-c2csc(N3CCOCC3)n2)cc1 | -62 | -1 | 4511 | 8 | -1 | 0.6 | 3
CCC(=O)N1CCc2cc(S(=O)(=O)N(C)c3ccc(Br)cc3)ccc21 | -4 | 20 | 3751 | -9 | 0 | 0.5 | 8

Single values from the results shown.
Result for O=C(NCC(=O)N1CCCC1)c1cccs1 under Sa RN4220 lethal: 3.9
Result for COCCCn1nnnc1SCC(=O)Nc1nc2ccccc2s1 under Sa ugtP lethal: 3
